StopGo reporter – FMDV 2A StopGo reporter, luciferase signal; human cells with a luciferase reporter of 2A StopGo recoding; control for the full effect not named in the record; actives 1.2% (n = 410,000); Potency, µM (titrated, usually from 57.9 µM), for the others: at the top dose signal change, negative = less light; AID 1159524; active = well fitted falling curve with a large enough effect; inconclusive = small, poorly fitted or top-dose-only effect; inactive = no such curve, though single readings can be large or run the other way; tested in HEK293T cells; note: % is set by controls: 0 for no effect and ±100 for the full control effect; nearly all actives have a fitted effect of over 45% in size; luciferase light after 4 h
Cruzain inh noDet – cruzain (T. cruzi) inhibition without detergent; actives 2.3% (n = 200,000); P25779; purified cruzain, Z-FR-AMC fluorescence, no detergent; Potency, µM, inactives show max response, negative = inhibition, most hits filed as inhibitors; active = well fitted curve in the direction sought with a large enough effect; inconclusive = small, poorly fitted or top-dose-only effect, or another doubt; inactive = no such curve, though single readings can be large; an effect the other way counts as inactive or inconclusive;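 note: plate controls were enzyme without inhibitor for no effect and buffer without enzyme for full effect; nearly all actives have a fitted effect of over 40% in size; top concentration of the series not given in the record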
Target sequence (P25779 123-467 limits assumed): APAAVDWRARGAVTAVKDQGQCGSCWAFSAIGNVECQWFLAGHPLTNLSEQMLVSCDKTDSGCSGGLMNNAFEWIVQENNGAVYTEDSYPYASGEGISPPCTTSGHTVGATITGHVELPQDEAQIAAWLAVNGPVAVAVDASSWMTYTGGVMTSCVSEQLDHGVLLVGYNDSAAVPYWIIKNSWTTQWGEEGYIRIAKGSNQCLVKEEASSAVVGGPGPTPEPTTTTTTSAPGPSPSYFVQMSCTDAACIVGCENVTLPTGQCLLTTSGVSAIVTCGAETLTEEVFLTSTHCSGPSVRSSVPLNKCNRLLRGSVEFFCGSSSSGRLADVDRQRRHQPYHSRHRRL
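Detergent-free condition (0.00005% Triton X-100) in acetate buffer pH 5.5 with DTT. 1.5 nM enzyme and compound were pre-mixed 15 min, then 2 uM Z-FR-AMC substrate added; reaction progress from fluorescence change between first and third reads (60 s).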
RE007 growth inh – less growth of the S. pombe RE007 Vpr strain | S. pombe RE007 Vpr strain, BacTiter-Glo ATP luminescence, 24 h; control for the full effect not named in the record | Potency, µM (highest dose often 92.2 µM), without a hit: top-dose activity change, negative = less growth | actives 0.21% (n = 360,000) | AID 651644; active = well fitted falling curve with a large enough effect; inconclusive = small, poorly fitted or top-dose-only effect; inactive = no such curve, though single readings can be large or run the other way;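 note: % is set by controls: 0 for no effect and ±100 for the full control effect; nearly all actives have a fitted effect of over 50% in size; the assay follows cell death caused by Vpr and the record does not say whether a fall means rescue or toxicity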
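Fission yeast strain RE007, carrying one chromosomally integrated HIV-1 vpr copy, was seeded at OD 0.01 in PMG+AL medium with 23 nL pinned compound. After 24 h at 30 °C and 99% humidity, viability was read by BacTiter-Glo luminescence.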
MARV entry inh – Marburg virus entry inhibition; Potency, µM (titrated, usually from 37.8 µM), without a hit: top-dose activity change, negative = inhibition, hits mostly inhibitors; actives 1.8% (n = 300,000); Marburg virus pseudotyped entry inhibition, cell reporter; control for the full effect not named in the record; about a third of the inactives were read at about 46 µM; active = well fitted inhibition curve with a large enough effect; inconclusive = small, poorly fitted or top-dose-only effect, or effect the other way; inactive = flat fitted curve, though single readings scatter; tested in HEK293 cells; about a fifth of its hits are not listed in these tables; note: % is set by controls: 0 for no effect and ±100 for the full control effect; luciferase read-out
Lassa entry inh – blocks Lassa virus binding to or entry into cells | actives 1.2% (n = 300,000) | Lassa virus pseudotype entry inhibition, cell reporter; control for the full effect not named in the record | Potency, µM (series often up to 37.9 µM), for the others: at the highest dose activity change, negative = inhibition, hits mostly inhibitors; active means well fitted inhibition curve with a large enough effect; inconclusive means small, poorly fitted or top-dose-only effect, or effect the other way; inactive means flat fitted curve, though single readings scatter; tested in HEK293 cells; note: % is set by controls: 0 for no effect and ±100 for the full control effect; nearly all actives have a fitted effect of over 50% in size; luciferase read-out
Cruzain inh Det – inhibitors of Trypanosoma cruzi cruzain with detergent. P25779. purified cruzain, Z-FR-AMC fluorescence, 0.01% Triton. Potency, µM, for inactives: max response, negative = inhibition, actives largely listed as inhibitors. actives 0.43% (n = 200,000). AID 1478; active = well fitted curve in the direction sought with a large enough effect; inconclusive = small, poorly fitted or top-dose-only effect, or another doubt; inactive = no such curve, though single readings can be large; an effect the other way counts as inactive or inconclusive;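 note: plate controls were neutral wells for no effect and buffer without enzyme for full effect; nearly all actives have a fitted effect of over 40% in size; top concentration of the series not given in the record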
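Detergent-containing arm of a paired screen for aggregation-based inhibition: 0.01% Triton X-100 present. Cruzain at 1.5 nM cleaved 2 uM Z-FR-AMC at pH 5.5 with 5 mM DTT; AMC fluorescence gain over 60 s measured activity.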
NS1 function inh – inhibitors of influenza NS1 protein function. AID 2326. actives 0.4% (n = 270,000). S. cerevisiae slowed by influenza A NS1, growth recovery by OD600. Potency, µM (series often up to 46.1 µM), inactives show at the highest dose activity, positive = more growth; note: actives are rising curves; nearly all actives have a fitted effect of over 50% in size
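Recovery from NS1-induced slow growth read by OD600 in budding yeast switched to galactose assay medium (pH 6.0, -URA) at 1:100 dilution. Compound 23 nl per well; the matching strain lacking NS1 serves as control.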
SARS PLpro yeast – blocks SARS-CoV papain-like protease in a yeast assay. S. cerevisiae expressing SARS-CoV PLpro, growth rescue; control for the full effect not named in the record. Potency, µM (top dose mostly 32.9 µM), for the others: top-dose activity, positive = growth rescue. actives 0.19% (n = 330,000); note: 0% is about no effect; nearly all actives have a fitted effect of over 55% in size; growth read by luminescence after 48 h
The depositor's hits bear a star; ? = inconclusive; / = no result given; [ ] = dose if it differs, or a comment. Unless noted, calls come from the whole dose curve; as a rule, active means well fitted rising curve with a large enough effect; inconclusive means small, poorly fitted or top-dose-only effect; inactive means no such curve, though single readings can be large or run the other way. Potency is the fitted concentration of half-maximal effect.

SMILES	StopGo reporter	Cruzain inh noDet	RE007 growth inh	MARV entry inh	Lassa entry inh	Cruzain inh Det	NS1 function inh	SARS PLpro yeast
COc1c(Br)cc([N+](=O)[O-])c(OC)c1C(=O)NC(=O)Nc1cc(Cl)cc(Cl)c1	?	/	-9%	/	/	/	0%	-7%
Cc1cccc(Cn2c(=O)oc3ccc(C)cc32)c1	2%	/	2%	-11%	4%	/	-6%	-1%
CC1CC(C)CN(c2cc3c(cc2[N+](=O)[O-])C(=O)N(c2ccccc2)C3=O)C1 (stereo not drawn)	-2%	-13%	20%	0%	1%	-3.5%	18%	-6%
COc1cccc(CC(=O)Nc2sc3c(c2C(N)=O)CCCC3)c1	21%	/	2%	-13%[46.1 µM]	6%[46.1 µM]	/	3%	11%
CCOc1ccc(N(CC(=O)NC2CCCCC2)C(=O)Cn2nnc(-c3ccc(C)o3)n2)cc1	8%	/	-11%	11%[46.1 µM]	/	/	21%	-4%
COc1ccccc1C(C)NC(=O)CCC(=O)N1CCN(S(=O)(=O)c2ccc(Cl)cc2)CC1 (stereo not drawn)	35µM*	/	28%	?	?	/	/	/
CCOC(=O)C1(Cc2ccccc2)CCN(Cc2cn(CC(=O)OC)c3ccccc23)CC1	-5%	/	-26%	21%[46.1 µM]	8%	/	7%	1%
Cc1ccccc1CCNC(=O)C1CCN(S(=O)(=O)c2ccc3c(ccn3C)c2)CC1	-18%	-21%	/	/	-18%[46.1 µM]	-2.6%	/	/
O=C(CCCN1C(=O)NC2(CCCC2)C1=O)Nc1ccc(F)cc1	-2%	/	-2%	5%	-21%	/	/	1%
c1ccc2nc(N3CCOCC3)c(N3CCCC3)nc2c1	-8%	/	-2%	6%	1%	/	/	/
O=[N+]([O-])c1ccc(Oc2ccc(/C=N/O)cc2)nc1	4%	/	0%	10%[46.1 µM]	-14%[46.1 µM]	/	4%	0%
CCC1CCCCN1C(=S)NC(=O)c1cc(S(=O)(=O)N2CCOCC2)ccc1C (stereo not drawn)	-4%	/	9%	/	/	/	-10%	-1%
CCCOc1ccc(C2C(C(=O)c3ccc(C)o3)=C(O)C(=O)N2CCN2CCOCC2)cc1OC (stereo not drawn)	17%	24%	-25%	?	17%	-4.6%	7%	1%
COc1ccc(C/C(N)=N/OC(=O)c2ccc(Cl)cc2)cc1	7%	/	-7%	-19%[46.1 µM]	?	/	/	-4%
CCc1ccc(C(=O)NNC(=O)c2ccc3c(=O)n4c(nc3c2)CCC4)cc1	-5%	/	3%	13%	-3%	/	17%	1%
CC(=O)Nc1cc(NC(C)=O)ncn1	8%	/	7%	-1%[46.1 µM]	11%	/	2%	1%
COc1ccc(C2NC(=O)c3ccccc3O2)cc1 (stereo not drawn)	-16%	/	4%	/	/	/	-3%	2%
Cc1c(CNCCc2ccc(Cl)cc2)c(C(=O)O)c(C)n1-c1ccccc1	2%	/	-13%	9%	1%	/	2%	0%
COc1ccccc1NC(=O)N(Cc1ccco1)C1CCN(C(C)=O)CC1	-2%	-3%	/	/	?	2.3%	/	/
CC1=C(c2ccc(Cl)cc2)S(=O)(=O)N=C1N1CCC(C(=O)NCCc2ccco2)CC1	-13%	-13%	/	/	?	-4.2%	/	/
O=C(NC(=S)N1CCCC(C(F)(F)F)C1)c1ccc(F)cc1 (stereo not drawn)	3%	/	-4%	5%[46.1 µM]	-14%[46.1 µM]	/	-11%	6%
O=S(=O)(c1cccc(C(F)(F)F)c1)N1CCN(C(=S)NC2CC2)CC1	0%	11%	6%	-26%	-2%	-0.5%	5%	2%
COc1ccc(-n2cc(-c3ccccc3)c3c(N4CCCC(C)C4)ncnc32)cc1 (stereo not drawn)	-22%	-6%	/	/	18%[46.1 µM]	0.3%	/	/
O=C(OCCN1CCOCC1)C(c1ccccc1)c1ccccc1	/	2%	8%	0%	16%	-0.4%	-7%	4%
COc1ccc(CCNC(=O)C2CC3Cn4c(nc5ccccc54)C3N2C)cc1 (stereo not drawn)	-9%	/	-6%	/	/	/	8%	-1%
CC1(C)CC(=O)c2cc3c(nc2C1)CC(C)(C)CC3=O	7%	5%	9%	3%	-5%	-0.2%	-2%	22%
CN(C(=O)c1ccco1)c1nc(-c2ccc(F)cc2)cs1	58%[activator]	/	-1%	-21%	?	/	-27%	3%
Cc1ccc(Nc2nc(-c3ccccc3)nc3ccccc23)cc1	0%	8%	/	/	26%[46.1 µM]	-14%	/	/
O=C(N/N=C\c1ccc[nH]1)C1COc2ccccc2O1 (stereo not drawn)	-13%	/	-16%	/	/	/	-3%	0%
Cc1cccc(CSc2nc3[nH]ncc3c(=O)[nH]2)c1	9%	/	12%	?	-14%[46.1 µM]	/	/	4%
Cc1sc2nc(CN3CCOCC3)nc(Cl)c2c1C	0%	-6%	?	?	-12%	-3.0%	-2%	-4%
CC(=O)c1ccc(NS(=O)(=O)c2c(C)cc(C)cc2C)cc1	68%[activator]	/	0%	?	?	/	2%	0%
CC(C)Cc1cc(CNC(=O)C2CCC(=O)N(CCc3cccc(F)c3)C2)on1 (stereo not drawn)	-6%	/	-12%	/	/	/	11%	-3%
CCOC(=O)C(=O)N1CCN(c2nc(-c3ccc(Cl)cc3)cs2)CC1	-12%	/	-29%	1%[46.1 µM]	8%[46.1 µM]	/	-48%	-11%
O=C(N/N=C/c1coc2ccccc2c1=O)c1cc(Br)c(O)c(Br)c1	-10%	/	-18%	-1%	-25%	/	-11%	1%
Cc1cc(N2CCOCC2)cc(C)[n+]1[O-]	18%	4%	7%	5%	-1%	2.7%	5%	3%
COc1ccc(NC(=O)/C(C#N)=C/c2ccc(OCc3ccccc3F)cc2)cc1	0%	4µM*	-3%	?	?	-0.9%	-33%	-3%
CCN(CCCNC(=O)c1ccc(N2CCCC2=O)cc1)c1cccc(C)c1	?	-1%	13%	-26%[46.1 µM]	-11%	9.9%	-11%	-7%
CN(C)/C=N/c1ncc(C(=O)c2ccc(Cl)cc2)s1	1%	-2%	?	1%	12%	-4.7%	-2%	-2%
Cc1ccc(N(CC(=O)NCCc2ccc(F)cc2)S(=O)(=O)c2ccc(Cl)c([N+](=O)[O-])c2)c(C)c1	?	-14%	-7%	?	23µM*	-6.8%	7%	-6%
COc1cccc(C2CCCN2Cc2nc(CCC(C)C)no2)c1 (stereo not drawn)	-24%	/	-30%	/	/	/	0%	-1%
COc1ccc(NC(=O)Cn2cnc3c(oc4ccccc43)c2=O)cc1OC	15%	-12%	/	/	-31%[46.1 µM]	-7.3%	/	/
CSC1=NC(=O)/C(=C\c2cccc3ccccc23)S1	-8%	/	-5%	-3%[46.1 µM]	12%	/	/	-16%
CCOC(=O)c1ccccc1NC(=O)CSc1cn(CC(=O)N2CCCCC2)c2ccccc12	-12%	-11%	/	/	4%[46.1 µM]	-1.9%	/	/
N/C(=N\OC(=O)Cc1ccccc1[N+](=O)[O-])c1cccc(Br)c1	17%	/	1%	/	/	/	-9%	-4%
CCCCn1c2c(c(=O)n(C)c1=O)C(c1ccc(OC)cc1)N1CCCCCC1=N2 (stereo not drawn)	-17%	?	29%	?	?	-12%	-35%	-3%
CC(=O)C1=C(C)OC(N)=C(C#N)C1c1cccc2ccccc12 (stereo not drawn)	-25%	/	-2%	0%	?	/	7%	0%
FC(F)(F)c1cccc(NC(=S)Nc2ccc(Cl)cc2Cl)c1	?	1%	0%	-26%	?	-8.6%	-55%	-4%
COc1ccc(C(=O)N2CCN(c3ccc(C)c(C)c3)CC2)cc1OC	-12%	-1%	-3%	/	/	-2.2%	-11%	8%
CC(=O)Oc1ccc(-c2nc3c(C)cccc3c(=O)o2)cc1	33%[activator]	/	-25%	?	6%	/	-21%	-6%

Next part
SMILES	StopGo reporter	Cruzain inh noDet	RE007 growth inh	MARV entry inh	Lassa entry inh	Cruzain inh Det	NS1 function inh	SARS PLpro yeast
CCC1CO/C(=C(\C(Cl)=C(Cl)Cl)[N+](=O)[O-])N1 (stereo not drawn)	-21%	/	13%	-14%[46.1 µM]	3%	/	/	0%
NC(=O)c1ccsc1NC(=O)COC(=O)c1cc(=O)[nH]c2ccccc12	1%	/	8%	-7%	-22%	/	/	/
CN1/C(=C/C(=O)COC(=O)C2COc3ccccc3O2)C(C)(C)c2ccccc21 (stereo not drawn)	-4%	/	-15%	-4%	3%	/	/	/
COc1ccccc1C(=O)NC(CCSC)C(=O)OC(C)C(=O)NC1CC1 (stereo not drawn)	?	/	-5%	16%	10%	/	/	-5%
CCC(C)NC(=O)C1=C(C)C(=O)OC12CCC(C)CC2 (stereo not drawn)	-27%	14%	-5%	/	/	-0.4%	15%	3%
COc1cc(-c2noc(C)c2/C=C/c2cccc([N+](=O)[O-])c2)cc(OC)c1OC	-27%	/	6%	/	/	/	2%	-1%
O=C1/C(=C/c2ccccc2)CCCc2ccccc21	24%	-6%	-12%	22%[46.1 µM]	?	-8.3%	-16%	-8%
CCC(=O)N1CCc2cc(Br)cc(S(=O)(=O)N3CCCC(C(=O)NCc4ccc(F)cc4)C3)c21 (stereo not drawn)	59%[activator]	-14%	/	-4%[46.1 µM]	3%[46.1 µM]	-3.8%	/	/
CCOc1ccc(C2C(=O)N(C3CCCCCC3)CC(=O)N2CCC2=CCCCC2)cc1OC (stereo not drawn)	-19%	26%	/	/	-26%[46.1 µM]	0.1%	/	/
O=C(N/N=C\CCc1ccccc1)c1ccco1	5%	10%	-5%	?	29%	-3.2%	22%	2%
O=C(CN1CCN(C(=O)c2c(F)cccc2F)CC1)Nc1ccccc1F	-7%	20%	-1%	5%	-23%	3.7%	0%	1%
Cc1ccc(S(=O)(=O)NC(C)(C)CN2CCNCC2)cc1	-14%	/	20%	?	-21%[46.1 µM]	/	3%	6%

Assay outcomes: PubChem BioAssay, National Center for Advancing Translational Sciences (NCATS)
